Source: PubChem BioAssay (Broad Institute)
FGF22 binding: binders of recombinant human FGF22 by thermal shift; SYPRO orange fluorescence; percent of sucrose octasulfate shift, DMSO zero; calls only at 9.99 µM; 340,000 tested, 1.5% active; AID 651658;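 active = melting point raised past a set limit in the mean and every replicate; inconclusive = no clear call; three in four hits are not shown here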
Target sequence (Q9HCT0 whole entry, looked up): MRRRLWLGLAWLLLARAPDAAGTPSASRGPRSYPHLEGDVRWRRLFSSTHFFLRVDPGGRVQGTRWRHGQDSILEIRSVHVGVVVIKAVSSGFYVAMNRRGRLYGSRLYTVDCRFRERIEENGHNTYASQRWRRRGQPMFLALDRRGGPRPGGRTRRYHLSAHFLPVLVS
AF4-AF9 inh: MLL-AF4/AF9 protein interaction inhibition; P42568; AlphaScreen, biotin-AF4 peptide binding to FLAG-AF9; inhibition, % at 10 µM; 350,000 tested, 0.47% active; AID 651704;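 active = every replicate reaching a set inhibition limit, whatever the replicate mean, cut at about 25% in these data; inconclusive = mean inhibition reaches that limit but some replicates miss it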;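 also: 0% = plate neutral control median and 100% = total signal loss; the record names both 10 and 1 µM as test concentration; the first replicate is given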
Target sequence (P42568 whole entry, looked up): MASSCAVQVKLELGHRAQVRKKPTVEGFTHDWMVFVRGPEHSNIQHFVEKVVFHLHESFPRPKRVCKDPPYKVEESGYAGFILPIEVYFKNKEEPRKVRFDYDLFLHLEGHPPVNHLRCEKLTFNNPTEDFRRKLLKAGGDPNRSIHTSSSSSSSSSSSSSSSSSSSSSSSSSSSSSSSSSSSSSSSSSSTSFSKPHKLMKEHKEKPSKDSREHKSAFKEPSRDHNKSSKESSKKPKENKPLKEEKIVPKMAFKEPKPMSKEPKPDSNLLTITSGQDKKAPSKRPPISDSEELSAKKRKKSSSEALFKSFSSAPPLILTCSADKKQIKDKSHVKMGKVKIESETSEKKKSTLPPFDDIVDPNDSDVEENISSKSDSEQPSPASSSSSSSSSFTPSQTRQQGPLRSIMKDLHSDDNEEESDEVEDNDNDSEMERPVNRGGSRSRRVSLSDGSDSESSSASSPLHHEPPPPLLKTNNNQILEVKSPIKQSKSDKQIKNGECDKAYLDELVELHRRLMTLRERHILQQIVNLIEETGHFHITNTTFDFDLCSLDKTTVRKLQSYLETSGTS
rRNA inh HTS: selective bacterial rRNA inhibition in E. coli; 350,000 tested, 1.6% active; GFP signal change (wild-type ribosome), % (concentration not given with the values); E. coli WT GFP vs humanized-ribosome RFP mutants, fluorescence, 24 h; stronger effect = lower value; DMSO median 0, no signal -100; AID 720706;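 active = significant combined selectivity score with lowered wild-type GFP, culture density cut under 30%, mutant RFP and density less affected; inactive = any of these conditions unmet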; also: one replicate is shown; some compounds called inactive have numbers as strong as hits
rRNA inh HTS OD600: recorded beside rRNA inh HTS, whose call it bears; OD600 change, %; measured here: OD600 growth;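 optical density of the mix in the first replicate; 0 = DMSO median and -100 = no signal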
rRNA inh HTS RFP: recorded beside rRNA inh HTS, whose call it bears; RFP signal change, %; measured here: RFP humanized mutant strains;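 first replicate; 0 = DMSO median and -100 = no signal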
An asterisk follows results filed as active; i = inactive; u = inconclusive. A portion of the library, so the mix of outcomes need not match the whole.

SMILES	FGF22 binding	AF4-AF9 inh	rRNA inh HTS	rRNA inh HTS OD600	rRNA inh HTS RFP
C[C@@H]1CCCCO[C@H](CN(C)C)[C@@H](C)CN([C@@H](C)CO)C(=O)c2cc(NC(=O)CCC(F)(F)F)ccc2O1	i	-1.1	7	8	-0.2
C[C@@H]1CN([C@H](C)CO)C(=O)c2cc(-c3cccc(F)c3)cnc2O[C@H]1CN(C)CC1CCOCC1	i	-0.8	0	4	-3.1
CS(=O)(=O)Nc1cccc(NC(=O)C2Cc3c(-c4ccco4)ccnc3O2)c1 (centres undefined)	i	-2.0	-17	5	8.8
COc1ccc(S(=O)(=O)Nc2ccc3c(c2)C(=O)N([C@H](C)CO)C[C@H](C)[C@@H](CN(C)Cc2ccc(C(F)(F)F)cc2)OCCCC[C@@H](C)O3)cc1	i	-0.7	2	-6	6.9
COc1ccc(CCCNC(=O)C2Cc3c(-c4cccc(C(N)=O)c4)ccnc3O2)cc1 (centres undefined)	i	-1.1	-2	-13	-1.0
CC(C)NC(=O)N(C)C[C@H]1Oc2ccc(NC(=O)Nc3ccccc3)cc2CC(=O)N([C@H](C)CO)C[C@H]1C	i	-3.1	5	4	-0.4
CC1NC(=O)c2ccccc2-n2c1nc1ccc(F)cc1c2=O (centres undefined)	i	-1.2	23	16	-0.3
COC(=O)c1cc(C)ccc1/C=C1/Cc2c(C)cc(C)cc2C1=O	i	-0.2	12	14	3.7
C[C@@H]1CCCCO[C@H](CN(C)Cc2ccc(C(F)(F)F)cc2)[C@H](C)CN([C@H](C)CO)C(=O)c2cc(N(C)C)ccc2O1	i	35*	-6	-11	1.2
C[C@H](CO)N1C[C@H](C)[C@@H](CN(C)CC2CCCCC2)OCCCC[C@H](C)Oc2ccc(N(C)C)cc2C1=O	i	u	1	9	-0.2
CC(C)C#Cc1cnc2c(c1)C(=O)N([C@@H](C)CO)C[C@H](C)[C@@H](CN(C)C(=O)C1CCC1)O2	i	-2.9	-2	2	-2.6
O=C1Nc2ccccc2-n2nnnc2C1N1CCCN(Cc2ccc(F)cc2)CC1 (centres undefined)	i	-1.9	28	15	-0.4
O=C(c1cccs1)N1C[C@H](n2cc(-c3ccc(F)cc3)nn2)[C@@H](O)C[C@@H]1c1ccc(Cl)cc1	i	1.8	-14	-4	1.4
Cc1noc(C)c1S(=O)(=O)Nc1ccc2c(c1)C(=O)N([C@H](C)CO)C[C@H](C)[C@H](CN(C)C(=O)Nc1ccccc1)OCCCC[C@H](C)O2	i	4.3	-1	-5	1.2
O=C(C[C@H]1C=C[C@@H](NC(=O)Nc2cc(F)ccc2F)[C@H](CO)O1)NCc1ccccn1	i	-1.3	0	0	1.7
COc1cccc(C#Cc2cnc3c(c2)C(=O)N([C@H](C)CO)C[C@H](C)[C@H](CN(C)C(=O)C2CCC2)O3)c1	i	-0.9	2	-20	5.9
C[C@@H]1CCCCO[C@H](CN(C)C(=O)CCC(F)(F)F)[C@H](C)CN([C@H](C)CO)C(=O)c2cc(NC(=O)Cc3ccccc3)ccc2O1	i	2.2	-3	-10	2.0
CC(C)NC(=O)N(C)C[C@H]1OCCCC[C@H](C)Oc2ccc(NC(=O)Nc3ccc(C(F)(F)F)cc3)cc2C(=O)N([C@H](C)CO)C[C@@H]1C	i	0.0	3	2	2.9
CN1C(=O)c2cc(NC(=O)Cc3ccccc3)ccc2OC[C@H]2O[C@@H](CC(=O)O)CC[C@H]21	i	0.3	2	2	-1.0
CNC[C@@H]1Oc2c(NC(=O)Nc3ccc4c(c3)OCO4)cccc2C(=O)N([C@@H](C)CO)C[C@@H]1C	i	-0.1	4	8	-0.7
C[C@H]1CN([C@@H](C)CO)C(=O)Cc2cc(NC(=O)CCC(F)(F)F)ccc2O[C@H]1CN(C)Cc1ccc2c(c1)OCO2	i	-2.8	-1	4	-0.5
CC(C)N(C[C@@H]1[C@@H](c2ccccc2)[C@@H](CO)N1S(C)(=O)=O)C(=O)CN(C)C	i	-5.8	1	10	1.0
C[C@H](CO)N1C[C@H](C)[C@H](CN(C)Cc2ccc3c(c2)OCO3)Oc2ccc(NC(=O)Cc3ccccc3)cc2CC1=O	i	-0.3	-20	-46	7.9
CCC(=O)N[C@@H]1CC[C@@H](CCn2cc(-c3cccc(OC)c3)nn2)O[C@H]1CO	i	1.6	0	0	-1.6
O=C(C1CCOCC1)N1C[C@H]2[C@@H](c3ccccc31)[C@@H](CO)N2C(=O)Cc1ccccc1	i	-0.6	4	-1	-1.3
CC(=O)NCCNc1nc2cc(-c3ccccc3C)sc2c(=O)n1C	i	-1.9	-12	-18	-1.5
CC(=O)N(C)C[C@@H]1Oc2cc(-c3cncnc3)ccc2S(=O)(=O)N([C@H](C)CO)C[C@@H]1C	i	-4.1	2	-1	-2.7
C[C@H](O)C#Cc1cnc2c(c1)C(=O)N([C@@H](C)CO)C[C@@H](C)[C@H](CN(C)C(=O)Cc1ccccn1)O2	i	-2.6	2	16	-0.4
C[C@@H]1CN([C@H](C)CO)C(=O)c2cc(NC(=O)CCCCCC(=O)Nc3ccccc3N)ccc2O[C@H]1CN(C)S(=O)(=O)c1ccc(F)cc1	i	-2.2	-1	5	1.0
C[C@@H]1CCCCO[C@H](CN(C)Cc2ccc(C(=O)O)cc2)[C@@H](C)CN([C@H](C)CO)C(=O)c2cc(NS(=O)(=O)c3ccc(Cl)cc3)ccc2O1	i	-2.2	2	1	-2.6
CC(C)Oc1ccc(F)cc1-c1cc(C(=O)Nc2ccccc2)[nH]n1	i	-2.9	1	9	-2.2
COC(=O)c1ccc2cn[nH]c2c1	i	2.2	11	8	-1.1
C[C@@H]1CN([C@@H](C)CO)S(=O)(=O)c2ccc(C#Cc3ccccc3F)cc2O[C@H]1CN(C)C(=O)Cc1ccccc1	i	-8.5	1	-5	-2.3
CCN(CC)CCN1CCN(c2cncc(-c3ccc4ccccc4c3)n2)CC1	i	18	2	11	7.1
C[C@@H]1CN([C@@H](C)CO)C(=O)Cc2cc(NC(=O)NC3CCCCC3)ccc2O[C@@H]1CN(C)Cc1ccc(Cl)c(Cl)c1	i	-1.4	1	2	-0.2
Cc1ccc(-c2cnc3cccnn23)cc1F	i	-10	-10	-4	4.1
OC[C@@H]1[C@H](c2ccc(C3=CCCC3)cc2)[C@H]2CN(Cc3cncnc3)CCCCN12	i	11	3	20	-2.2
Cc1noc(C)c1S(=O)(=O)N(C)C[C@H]1OCCCC[C@H](C)Oc2ccc(NC(=O)NC(C)C)cc2C(=O)N([C@@H](C)CO)C[C@@H]1C	i	-1.4	1	-2	1.5
CCCN1[C@@H]2c3ccc(-c4ccccc4F)c(=O)n3C[C@H]1[C@H](CO)[C@H]2C(=O)NCCOC	i	-4.3	0	1	-0.6
C[C@H](CO)N1C[C@H](C)[C@H](CN(C)Cc2ccc(Oc3ccccc3)cc2)Oc2ccc(NC(=O)Nc3ccccc3)cc2CC1=O	i	1.1	2	6	0.3
CC=CCn1c(SCCCc2ccccc2)nc2c1c(=O)[nH]c(=O)n2C	i	-2.6	-14	-4	-2.9
COC(=O)[C@]12C[C@H](CC(=O)N3CCC(c4ccccc4)CC3)C(=O)N(CCC3=CCCCC3)C1=C[C@H](COCc1ccccc1)O[C@@H]2C	i	-4.1	7	8	22
COCc1cn(CC[C@H]2CC[C@@H](NC(=O)Cc3cccnc3)[C@H](CO)O2)nn1	i	-1.9	2	7	-2.1
CN(C)C(=O)c1ccc(-c2ccc([C@@H]3[C@@H](CO)N4C(=O)CN(C(=O)CC5CC5)C[C@@H]34)cc2)cc1	i	-1.4	4	-2	-2.0
CCCC(=O)Nc1ccc2c(c1)OC[C@@H](C)N(C(C)=O)C[C@H](C)[C@H](OC)CN(C)C2=O	i	-0.7	-1	6	-0.6

A draw from above in order of SMILES length, descending.
SMILES	FGF22 binding	AF4-AF9 inh	rRNA inh HTS	rRNA inh HTS OD600	rRNA inh HTS RFP
Cc1noc(C)c1S(=O)(=O)N(C)C[C@H]1OCCCC[C@H](C)Oc2ccc(NC(=O)NC(C)C)cc2C(=O)N([C@@H](C)CO)C[C@@H]1C	i	-1.4	1	-2	1.5
C[C@@H]1CN([C@@H](C)CO)S(=O)(=O)c2ccc(C#Cc3ccccc3F)cc2O[C@H]1CN(C)C(=O)Cc1ccccc1	i	-8.5	1	-5	-2.3
CC=CCn1c(SCCCc2ccccc2)nc2c1c(=O)[nH]c(=O)n2C	i	-2.6	-14	-4	-2.9

(list continues)
SMILES	FGF22 binding	AF4-AF9 inh	rRNA inh HTS	rRNA inh HTS OD600	rRNA inh HTS RFP
Cc1c(C(=O)N2CCCCCC2(C)C(=O)NCC(C)C)oc2ccccc12 (centres undefined)	i	-0.5	-6	-11	1.5
CC(=O)N(C)C[C@@H]1Oc2cc(-c3cncnc3)ccc2S(=O)(=O)N([C@@H](C)CO)C[C@@H]1C	i	-0.8	3	8	-5.7
C[C@@H]1CCCCO[C@@H](CN(C)C(=O)Nc2cccc3ccccc23)[C@H](C)CN([C@@H](C)CO)C(=O)c2cc(NS(=O)(=O)c3ccc(Cl)cc3)ccc2O1	i	-2.8	6	14	2.1
C[C@@H]1CCCCO[C@H](CN(C)Cc2ccccc2)[C@@H](C)CN([C@H](C)CO)C(=O)c2cc(NS(=O)(=O)c3ccccc3)ccc2O1	i	-1.6	1	-5	1.8
C[C@@H]1CCCCO[C@@H](CN(C)C(=O)Nc2ccc(F)cc2)[C@H](C)CN([C@@H](C)CO)C(=O)c2cc(NC(=O)Nc3ccccc3)ccc2O1	i	-1.5	1	2	-0.2
C[C@H](O)C#Cc1cnc2c(c1)C(=O)N([C@@H](C)CO)C[C@H](C)[C@H](CN(C)C(=O)c1ccncc1)O2	i	-2.9	2	9	0.2
C[C@H](CO)N1C[C@H](C)[C@H](CN(C)C(=O)Nc2ccc3c(c2)OCO3)Oc2ncc(-c3cccnc3)cc2C1=O	i	-3.3	0	7	-2.3
C[C@@H]1CN([C@@H](C)CO)C(=O)c2cc(NS(=O)(=O)c3ccccc3)ccc2O[C@@H](C)CCCCO[C@@H]1CN(C)C	i	-2.0	2	4	-2.9
CC(C)NC(=O)N(C)C[C@@H]1Oc2ccc(NC(=O)CCCN(C)C)cc2C(=O)N([C@H](C)CO)C[C@@H]1C	i	-2.5	5	11	0.2
CCC(=O)Nc1ccc2c(c1)OC[C@@H](C)N(Cc1cccnc1)C[C@H](C)[C@@H](OC)CN(C)C2=O	i	-14	0	1	0.6
O=C([C@@H]1[C@@H](CO)[C@@H]2Cn3c(cccc3=O)[C@@H]2N1CC1CCCC1)N1CCc2ccccc2C1	i	0.6	-8	-1	6.0
COc1ccccc1-c1cn(CC[C@@H]2CC[C@H](NC(=O)C3CCOCC3)[C@@H](CO)O2)nn1	i	-1.0	2	-6	-1.4
CO[C@H]1CN(C)C(=O)c2cc(NS(=O)(=O)c3cn(C)cn3)ccc2OC[C@H](C)N(Cc2cccc(F)c2)C[C@H]1C	i	4.0	-1	-6	0.7
CCS(=O)(=O)Nc1ccc2c(c1)C(=O)N(C)[C@H]1CC[C@H](CC(=O)N3CCN(C)CC3)O[C@H]1CO2	i	-4.9	5	15	-1.4
O=C(CCN1CCCCC1)N[C@@H]1CC[C@H](CCNC(=O)c2cc(Cl)cc(Cl)c2)O[C@@H]1CO	i	-0.4	-2	-5	0.8

Complete entries as entered above:
CCC(=O)Nc1ccc2c(c1)OC[C@@H](C)N(Cc1cccnc1)C[C@H](C)[C@@H](OC)CN(C)C2=O in the list: FGF22 binding: i; AF4-AF9 inh: -14; rRNA inh HTS: 0; rRNA inh HTS OD600: 1; rRNA inh HTS RFP: 0.6
O=C(CCN1CCCCC1)N[C@@H]1CC[C@H](CCNC(=O)c2cc(Cl)cc(Cl)c2)O[C@@H]1CO in the list: FGF22 binding: i; AF4-AF9 inh: -0.4; rRNA inh HTS: -2; rRNA inh HTS OD600: -5; rRNA inh HTS RFP: 0.8
O=C([C@@H]1[C@@H](CO)[C@@H]2Cn3c(cccc3=O)[C@@H]2N1CC1CCCC1)N1CCc2ccccc2C1 in the list: FGF22 binding: i; AF4-AF9 inh: 0.6; rRNA inh HTS: -8; rRNA inh HTS OD600: -1; rRNA inh HTS RFP: 6.0

(cont.)
SMILES	FGF22 binding	AF4-AF9 inh	rRNA inh HTS	rRNA inh HTS OD600	rRNA inh HTS RFP
COc1cccc(S(=O)(=O)Nc2ccc3c(c2)[C@H]2C[C@@H](CC(=O)NCc4ccccc4F)O[C@@H](CO)[C@H]2O3)c1	i	2.8	-3	-13	1.8
C/C=C/c1ccc([C@H]2[C@@H](CO)N3CCCCN(C(=O)Nc4ccccc4F)C[C@@H]23)cc1	i	-0.2	3	5	7.6
Cc1ccc(NC(=O)Nc2ccc3c(c2)C(=O)N(C)[C@H]2CC[C@H](CC(=O)O)O[C@@H]2CO3)cc1	i	-12	1	3	-2.7
C[C@H](CO)N1C[C@H](C)[C@@H](CN(C)CC2CCCCC2)OCc2cn(nn2)CCCC1=O	i	-1.1	1	1	-0.7
CN(C)C(=O)c1ccc(-c2ccc([C@H]3[C@H](C#N)N(S(C)(=O)=O)[C@H]3CO)cc2)cc1	i	0.9	2	-2	-5.6
COCC(=O)Nc1ccc2c(c1)C(=O)N(C)[C@H]1CC[C@@H](CC(=O)NC3Cc4ccccc4C3)O[C@@H]1CO2	i	0.4	6	5	-0.2
O=C(C[C@@H]1C[C@@H]2c3cc(NC(=O)NC4CCCC4)ccc3O[C@@H]2[C@@H](CO)O1)NCc1ccc(Cl)cc1	i	-1.5	0	-2	-4.9
